Assay outcomes: PubChem BioAssay, National Center for Advancing Translational Sciences (NCATS)
TRPV1 potentiator = HTS Assay for Compounds that Act as Potentiators of the Vanilloid Receptor 1; Transient receptor potential cation channel subfamily V member 1 (Homo sapiens), Q8NER1; TRPV1-expressing cells, Fluo-8 calcium influx, capsaicin EC20 potentiation; host cell line not named in the record; control for the full effect not named in the record; potentiation, % at 8.33 µM; 320,000 compounds, 0.02% hits; AID 540277, 2011; active means potentiation above 80%; inconclusive means 30% to 80%; inactive means below 30%; also: 0% is about no effect
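Cells expressing TRPV1 were dye-loaded with Fluo-8 and read kinetically: 10 s baseline, 3 min after compound (agonist portion), then 2 min after EC20 capsaicin (allosteric enhancer portion). Calcium-bound dye fluorescence at 480/520 nm.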
ClpP mod = qHTS Assay for Activators of ClpP | ATP-dependent Clp protease proteolytic subunit (Bacillus subtilis (strain 168)), P80244 | purified B. subtilis ClpP, FRET peptide cleavage, 20 min | Potency, µM (doses to about 57.5 µM), for the others: at the top dose activity change, negative = active | 340,000 compounds, 1.9% hits; active = well fitted falling curve with a large enough effect; inconclusive = small, poorly fitted or top-dose-only effect; inactive = no such curve, though single readings can be large or run the other way; also: potency is read from the fitted curve at half-maximal effect; the source files actives as falling curves though it sought activators and does not explain the sign; nearly all actives have a fitted effect of over 65% in size; many hits overshoot -100%
Target sequence (P80244 whole entry, looked up): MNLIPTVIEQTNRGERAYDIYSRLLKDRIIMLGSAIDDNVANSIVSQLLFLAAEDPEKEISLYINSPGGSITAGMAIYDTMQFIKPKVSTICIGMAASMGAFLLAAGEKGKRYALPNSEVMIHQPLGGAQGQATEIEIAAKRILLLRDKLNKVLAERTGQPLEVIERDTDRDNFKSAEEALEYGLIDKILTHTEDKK
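Purified B. subtilis ClpP, 10 microg/mL final in Tris/HCl pH8 with KCl, BSA, glycerol and Tween-20, cleaved an Abz/nitrotyrosine-quenched decapeptide. Fluorescence (ex 320, em 430) was read at 0 and 20 min at room temperature. Delta was normalized to 5.8 microM ADEP and DMSO/no-enzyme controls.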
gsp antagonist = qHTS for Antagonists of gsp, the Etiologic Mutation Responsible for Fibrous Dysplasia/McCune-Albright Syndrome: qHTS. gsp-mutant cells, cAMP HTRF, 30 min; control for the full effect not named in the record. Potency, µM (titrated, usually from 76.9 µM), for inactives: at the highest dose activity change, negative = inhibition, usual class: inhibitors. 340,000 compounds, 0.4% hits; active = falling curve of any shape with a large fitted effect; inconclusive = falling curve, mostly with a smaller effect; inactive = flat or rising curve; cell line not stated here;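 also: intracellular cAMP measured with PDE inhibitor Ro 20-1724 present during compound exposure; potency is read from the fitted curve at half-maximal effect; % is scaled to controls: 0 for no effect and ±100 for the full control effect; nearly all actives have a fitted effect of over 65% in size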
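Cells in G418 medium, seeded 16-24 h, 37C; buffer exchange to DPBS + 1 mM CaCl2, 0.5 mM MgCl2, 0.05% BSA; cpds in DMSO + […] (300 uM stock), 30 min 37C; HTRF cAMP detection.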
D2 potentiator = Beta-Arrestin HTS for Positive Allosteric Modulators of the Human D2 Dopamine Receptor: Potentiators. D(2) dopamine receptor (Homo sapiens), P14416. DiscoveRx D2 beta-arrestin cells, luminescence, 90 min; 100% = 57 uM dopamine signal. potentiation, % (concentration not given with the values). 360,000 compounds, 0.23% hits. AID 624464, 2012; active = potentiation of 50% or more; inconclusive = 30% to 50%; inactive = 30% or less;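 also: tested on top of an EC20 dose of dopamine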
Target sequence (P14416 whole entry, looked up): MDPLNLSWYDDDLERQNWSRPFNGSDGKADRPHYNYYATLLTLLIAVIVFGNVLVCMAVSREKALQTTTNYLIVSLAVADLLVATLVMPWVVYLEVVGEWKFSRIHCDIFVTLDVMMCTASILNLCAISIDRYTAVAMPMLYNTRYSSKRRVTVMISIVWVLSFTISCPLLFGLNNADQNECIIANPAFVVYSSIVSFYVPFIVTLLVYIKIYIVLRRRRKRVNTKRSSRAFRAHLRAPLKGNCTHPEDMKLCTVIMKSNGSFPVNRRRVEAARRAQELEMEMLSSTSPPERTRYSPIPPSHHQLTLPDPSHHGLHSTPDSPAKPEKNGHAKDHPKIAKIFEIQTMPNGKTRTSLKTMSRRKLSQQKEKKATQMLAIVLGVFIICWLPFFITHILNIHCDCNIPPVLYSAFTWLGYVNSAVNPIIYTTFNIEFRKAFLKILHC
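D2 cells co-treated with compound plus 50 nM dopamine (EC20) for 90 min at 37 deg C to detect potentiation. Beta-arrestin recruitment was read as enzyme-fragment luminescence after 1 h at ambient temperature. Full response was set by 57 uM dopamine.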
gsp ag = qHTS for Agonist of gsp, the Etiologic Mutation Responsible for Fibrous Dysplasia/McCune-Albright Syndrome: qHTS | gsp mutant cells, cAMP HTRF, 30 min; control for the full effect not named in the record | Potency, µM (series often up to 76.9 µM), for the others: top-dose activation (cAMP increase), usual class: activators | 340,000 compounds, 0.13% hits; active = well fitted activation curve with a large enough effect; inconclusive = small, poorly fitted or top-dose-only effect, or another doubt; inactive = no such curve, though single readings can be large or run the other way; cell line not stated here;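 also: phosphodiesterase inhibitor Ro 20-1724 added with compounds to block cAMP breakdown; potency is read from the fitted curve at half-maximal effect; nearly all actives have a fitted effect of over 60% in size; about a fifth of the inactives were tested at one dose only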
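Cells in DMEM/10% FBS with G418 were pretreated with compounds in DMSO plus […] (300 uM stock) for 30 min at 37C. cAMP was measured by HTRF (cAMP-d2 plus anti-cAMP antibody-K) after 30 min at room temperature.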
Menin-MLL FL inh = qHTS Assay for Inhibitors Targeting the Menin-MLL Interaction in MLL Related Leukemias: Competition With Fluorescein Labeled MLL-derived Peptide | 290,000 tested, under 10 active | FP activity change, % at 61.4 µM | Fluorescence polarization, fluorescein-MLL peptide displacement from menin; inconclusive = falling polarisation curve, or a change in total fluorescence; inactive = total fluorescence flat and polarisation flat or rising; no compound was filed as active; the % refers to the polarisation; negative = inhibition;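 also: % of control where 0% means no effect; inhibitors lower the polarisation; unlabelled MLL peptide was the positive control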
Sfp inh = qHTS Assay for Inhibitors of Bacillus subtilis Sfp phosphopantetheinyl transferase (PPTase); 4'-phosphopantetheinyl transferase ffp (Bacillus subtilis), Q9F4F7; 310,000 compounds, 3.5% hits; Biochemical Sfp PPTase activity, qHTS; Potency, µM, for the others: max response, negative = inhibition, actives largely listed as inhibitors; active = well fitted inhibition curve with a large enough effect; inconclusive = small, poorly fitted or top-dose-only effect, or another doubt; inactive = no such curve, though single readings can be large or run the other way;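 also: the enzyme is Sfp with the accession as filed and its product quenches rhodamine fluorescence; potency is read from the fitted curve at half-maximal effect; 0% = enzyme reaction without inhibitor and -100% = no enzyme wells; top concentration of the series not given in the record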
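Buffer: 50 mM Hepes-Na pH 7.6, 10 mM MgCl2, 0.01% Nonidet P-40, 0.01% BSA. Enzyme 15 nM, pre-exposed to compound 15 min; substrates then added and fluorescence change tracked over 30 min.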
* = called active by the depositor; ? = inconclusive; nt = no result given; & = joins results of further samples; [ ] = dose if it differs, or a comment.

molecule	TRPV1 potentiator	ClpP mod	gsp antagonist	D2 potentiator	gsp ag	Menin-MLL FL inh	Sfp inh
CCOc1ccc2[nH]c(=O)c(C(c3nnnn3CCOC)N3CCOCC3)cc2c1 (stereo not given)	7	16µM*	11%	-6	-6%	3.2	17%
CSCC[C@H](N)C(=O)NCC1CCC(C(=O)Nc2ccc3c(c2)OCO3)CC1 (stereo not given in full)	-6	-1.0%	7%	-43	nt	-6.5	14%
COc1ccc(NC2CCCN(C(=O)Cn3ccc(C)n3)C2)cc1OC (stereo not given)	-2	-17%	-7%	?	-18%	nt	-6%
Cc1ccnc(NC(=O)CCNC(=O)c2ccc(Br)cc2)c1	nt	-1.9%	nt	-12	-38%[inhibitor]	nt	nt
COc1cc2oc3ccccc3c2cc1N(CC(=O)N1CCCCC1)S(=O)(=O)c1ccc(C)cc1	-5	-17%	-4%[15.4 µM]	-13	11%	5.0	1%
COC(=O)c1ccc(C(=O)OCc2nc3cc4ccccc4cc3[nH]2)cc1	-5	5.0%	3%	1	-11%	-1.2	4%
Cc1ccn2c(NC3CCCCC3)c(C(C)C)nc2c1	18	-3.2%	-7%	-3	1%	-1.7	4%
O=C(CNC(=O)c1ccccc1F)OCc1nc2ccc(Cl)cc2n1CCO	-11	-3.4%	2%	-11	21%	nt	nt
COc1ccccc1C(=O)COC(=O)/C(=C/c1ccccc1)NC(C)=O	4	-1.2%	15%	17	-10%	nt	nt
COc1ccc2[nH]cc(CCn3ccc(O)c(C/C=C/c4ccccc4)c3=O)c2c1	21	nt	-73%	4	-1%[15.4 µM]	0.7	13%
Cc1c(C(c2cc(O)ccc2O)c2c(C)n(C)n(-c3ccccc3)c2=O)c(=O)n(-c2ccccc2)n1C	nt	nt	3%	0	-32%[inhibitor]	nt	nt
CN1C(=O)C2CN(CCc3ccccc3)CNC2N(C)C1=O (stereo not given)	3	-1.9%	-8%	2	17%	1.1	9%
CC(C)Oc1ccc(S(=O)(=O)N2CCOCC2)cc1NC(=O)Cc1cccs1	11	nt	-5%	-68	32%[15.4 µM]	nt	nt
CCOC(=O)COc1ccc(S(=O)(=O)NCc2ccco2)cc1	0	-1.3%	-6%	-11	-42%[inhibitor]	4.8	-10%
Cc1noc(C)c1CN(C(=S)NC1CC2CCC1C2)c1ccccc1 (stereo not given)	4	0.7%	?	-9	13%[15.4 µM]	-1.4	-11%
CCc1ccc2nc(N3CCN(C(=O)C(C)(C)C)CC3)sc2c1	10	0.1%	3%	-8	-6%	nt	5%
Cc1cc(NC(=O)CSc2ccccc2)no1	1	0.0%	18%	-22	2%	-1.8	6%
COc1ccc(N2CS(=O)CC2=O)cc1 (stereo not given)	-2	0.0%	5%	1	-35%[inhibitor]	-2.8	-3%
O=C(Nc1ccccc1)Nc1ccc2ocnc2c1	-18	-0.9%	8%	2	-2%[15.4 µM]	0.0	9%
Cc1ccc(C)c(NC(=S)N(CCc2nc3cc(C)c(C)cc3[nH]2)Cc2cccnc2)c1	2	0.4%	-1%	-17	-19%	5.0	28%
COc1ccc(C2(c3ccc(OC)cc3)NC(=O)N(CC(=O)NCC(C)c3ccccc3)C2=O)cc1 (stereo not given)	-4	0.7%	-23%	3	-23%	nt	nt
CC(C)c1ccc(CNc2nnnn2C)cc1	-20	-1.3%	5%	-17	-20%	-1.2	16%
COc1ccc(NC(=O)c2ccc(S(=O)(=O)NCc3cccnc3)cc2)cc1	-10	-14%	1%	-9	-12%[15.4 µM]	nt	5%
Cc1cc(NS(=O)(=O)c2ccc(NC(=O)CSc3nc4sc(C(=O)O)c(C)c4c(=O)[nH]3)cc2)no1	-2	nt	nt	-2	11%[15.4 µM]	4.9	12%
CS(=O)(=O)N1CCN(c2nnc(-c3ccccc3)c3ccccc23)CC1	23	1.1%	-8%	-20	?	-0.6	11%
COc1ccc(C(=O)Nc2cnccn2)cc1[N+](=O)[O-]	-1	-1.4%	6%	-6	18%	-0.5	9%
COCCNC(=S)Nc1ccccn1	2	0.3%	5%	-3	-30%	-3.8	-13%
Cc1c(Cl)cccc1NC(=O)Cn1nc(C)n2cccc2c1=O	0	-0.1%	15%	-11	34%	1.7	8%
O=C(CC1Sc2ccccc2NC1=O)NCc1ccc(Cl)cc1 (stereo not given)	8	nt	13%	16	-4%[15.4 µM]	1.3	-11%
CCOC(=O)COc1coc(CN2CCN(c3ccc(F)cc3)CC2)cc1=O	24	-0.3%	2%	-2	?	nt	18%
CN1CCN(C(=S)NC(=O)c2ccco2)CC1	-8	-7.8%	12%	-7	6%[15.4 µM]	1.0	56µM*
CCOc1cc(/C=C2\SC(=N)N(c3nccs3)C2=O)ccc1OCCN1CCOCC1	-3	-2.2%	1%	-15	-22%	0.6	8%
Cc1cc[n+](-c2[nH]c(=O)sc2/C=N/N=C(\[O-])c2ccncc2)cc1C	-22	-1.0%	-2%	-24	?	-8.0	?
CCOC(=O)c1c(S(=O)(=O)NCC(C)c2ccccc2)c(C)n(C)c1C (stereo not given)	2	-3.0%	-8%	-20	19%	-0.2	0%
CCNC(=O)NC(=O)C(C)Sc1ccc2c(c1)OCCO2 (stereo not given)	15	3.3%	5%	5	28%	3.3	20%
COc1ccc(OC)c(S(=O)(=O)Nc2cccc(F)c2)c1	7	-0.6%	-11%	-12	2%	3.7	9%
CN(Cc1cnccn1)C(=O)CC1C(=O)NCCN1Cc1ccc(F)cc1Cl (stereo not given)	5	-21%	8%	-1	16%	nt	5%
CC(=O)Nc1ccccc1C(F)(F)F	-2	nt	9%	-4	-5%[15.4 µM]	1.8	19%
COc1ccccc1CC(=O)NCCc1ccc(S(N)(=O)=O)cc1	3	-2.5%	5%	2	8%	2.0	8%
CCC(=O)Nc1nnc(S(=O)(=O)N2CCc3ccccc32)s1	21	-2.4%&-2.2%	5%	-6	16%	4.9	6%
O=C(O)CCN1C(=O)c2ccc(NC(=O)CSCc3ccccc3)cc2C1=O	2	-0.5%	3%	-12	-22%	0.0	12%
CCOC(=O)CC1CCCCN1C(=O)CCCn1nnnc1CN1CCOCC1 (stereo not given)	-6	-22%	6%	-10	-1%	nt	9%
O=C(CC(=O)Nc1ccccn1)Nc1ccccn1	?	-12%	15%	3	18%	6.0	14%
C[C@H]1CN([C@@H](C)CO)C(=O)CCCn2nncc2CO[C@@H]1CN(C)S(=O)(=O)c1cccc(F)c1	nt	0.6%	nt	-2	-14%	nt	nt
CCCS(=O)(=O)N1CCC(C(=O)NCCCN2CCC(Cc3ccccc3)CC2)CC1	8	2.2%	9%	-22	?	1.3	20%
CC(NC(=O)CCc1nnc(C2CCCCC2)o1)c1ccc(F)cc1 (stereo not given)	-4	0.0%	-1%	-3	27%	-5.4	11%
CCC(=O)Nc1ccc(NC(=O)c2cc3ccccc3o2)cc1	5	0.6%	-3%	-1	27%	7.5	21%
C/C(=N\Nc1ccc([N+](=O)[O-])cc1)c1ccc(O)cc1	2	nt	?	-10	14%	?	6%
CCOC(=O)c1c(NC(=O)c2ccco2)sc(C(=O)N2CCCC2)c1C	-8	-4.8%	5%	-10	16%	-2.0	-22%
CCc1ccc(NC(=O)CSc2nc(=O)n3cc(C)ccc3n2)cc1	11	25µM*	2%	9	?	nt	nt
CCOC(=O)c1sc(=S)n(-c2ccccc2Cl)c1SC	5	1.4%	0%	6	9%	2.8	0%
O=C1c2ccccc2NC(c2ccncc2)N1c1ccccn1 (stereo not given)	3	28µM*	7%	-2	-29%	6.0	9%
COc1cccc(NC(=O)Cn2c(=O)oc3cc(S(=O)(=O)N4CCCC4)ccc32)c1	16	nt	-5%	-9	-14%[15.4 µM]	7.0	16%
CCOC(=O)c1c(NC(=O)/C=C/C(=O)O)sc(C)c1-c1ccc(C(C)(C)C)cc1	-11	0.8%	-13%	-11	1%	-2.1	-12%
C#Cc1ccc(CN2CCCC(C(=O)Nc3ccccc3Oc3cccnc3)C2)cc1 (stereo not given)	-6	0.4%	-9%	-45	18%	nt	9%
O=C(O)C1CCN(C(=O)c2cccc3ccccc23)CC1	-6	nt	7%	-2	2%	-1.6	16%
CCn1cc(C(=O)O)c(=O)c2cc(F)c(N3CCN(C(=S)NC(=O)c4ccc(F)cc4)CC3)cc21	-4	nt	-19%	2	-14%[15.4 µM]	3.9	-4%
O=C(Nc1cc2c3c(c1)CC(=O)N3CCC2)c1ccc(Cl)cc1	-24	-3.5%	5%	-19	-9%	nt	nt
COc1ccc2oc(C(=O)OCC(=O)N(Cc3ccccc3)C(C)C)c(C)c2c1	6	32µM*	-20%	-7	-75%[inhibitor]	nt	nt
Cc1sc(NC(=O)CSc2nnc(-c3ccccc3)o2)c(C#N)c1C	4	-0.3%	-1%	-14	-28%	3.0	2%
CCOC(=O)c1cnc2ccc(C(=O)OC)cc2c1Nc1ccc(C(=O)O)cc1	15	nt	-2%	0	-41%	0.2	21%
COCCn1c(=NC(=O)CSC(C)=O)sc2cc(F)ccc21	1	-1.9%	?	-9	-32%[inhibitor]	0.6	-1%
CCC(NC(=O)NCc1ccccc1)(C(F)(F)F)C(F)(F)F	-19	0.7%	0%	-13	-9%[15.4 µM]	0.7	18%
